Assay outcomes (PubChem)
Bead autofluor – counter-screen for toxin protease inhibitors: compound fluorescence. compound autofluorescence counterscreen, microsphere flow cytometry; stronger effect = higher value. fluorescence intensity (concentration not given with the values). actives 3.1% (n = 360,000). AID 624483;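 active = at least 3 SD above the mean of all compounds, about 16000 in these data; inconclusive = too few beads counted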;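 also: 100 nL of 1 mM stock went into each well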
PrP UTR inh – inhibition of PrP 5' UTR reporter expression; inhibition, % (concentration not given with the values); cell-based PrP 5' UTR mRNA reporter, plate reader; AID 488862; actives 0.35% (n = 340,000);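 active = every replicate at 50% or more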;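 also: 0 = median of the neutral control wells; tested in H4 reporter cells; numbers are from one replicate; inactives centre near -14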
Mtb hypoxia inh – inhibitors of hypoxia-regulated fluorescent reporter in Mycobacterium tuberculosis; M. tuberculosis hypoxia-regulated fluorescent reporter, fluorescence; fluorescence inhibition, % (no concentration beside the values); actives 0.1% (n = 300,000); AID 1159583;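 active = 35 to 45% if threefold the growth effect, above 45% if 1.5-fold the growth effect; inactive = the rest, general growth blockers included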;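 also: wells of about 50 µL received 100 nL stock; 0% = vehicle wells and 100% = reference inhibitor wells; whole bacteria with a GFP reporter of the hypoxia response; strong numbers were not always called active; many hits fall short of the cut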
Sa ugtP lethal – compounds lethal to S. aureus RN4220 ugtP deletion mutant. OD600 growth, 16 h; some inactives read as strong as hits. growth inhibition, % (no concentration beside the values). actives 0.54% (n = 330,000);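 active = z-score under -3 and OD600 up to 0.15 on both plates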;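 also: plate controls were untreated wells for no effect and antibiotic for full effect; wells of about 80 µL received 100 nL stock; the first replicate is given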
Sa RN4220 lethal – S. aureus RN4220 growth inhibition | OD600, 16 h | inhibition, % (no concentration beside the values) | actives 0.33% (n = 330,000);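 active = z-score of -3 or lower and OD600 up to 0.18 on both plates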;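 also: plate controls were untreated cells for no effect and reference antibiotic for full effect; stock transfer was 100 nL into about 80 µL; one replicate is shown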
BJeLR lethal – kills HRASV12-expressing BJeLR cells; BJeLR (HRASV12) viability, CellTiter-Glo ATP luminescence, 48 h; reference of the scale not given here; inhibition, % (concentration not given with the values); actives 0.17% (n = 300,000); AID 1554;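 active = replicate mean above 50%; inconclusive = above 50% but judged a plate artefact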;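 also: 50 nL library stock added to about 25 µL; numbers are from one replicate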
Mtb hypoxia inh growth – recorded beside Mtb hypoxia inh, whose call it bears; growth inhibition, %; measured here: M. tuberculosis growth (absorbance);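 0% = vehicle and 100% = reference antibiotic; read after six days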
The depositor's hits bear a star; ? = inconclusive; · = not tested or not shown. Outcome played no part in choosing rows. Share with any hit: about 3.9%.

# | mol | Sa RN4220 lethal | Bead autofluor | Mtb hypoxia inh | PrP UTR inh | Sa ugtP lethal | Mtb hypoxia inh growth | BJeLR lethal
1 | Cc1cc2nc(-c3ccc(NC(=O)c4cccnc4)cc3)oc2cc1C | -8.1 | 2876 | 14 | -142 | 62 | 16 | -3
2 | Cc1c(NC(=O)c2ccc(C(C)(C)C)cc2)cccc1[N+](=O)[O-] | · | 2095 | · | -75 | · | · | 9
3 | COc1cccc(NC(=O)C2CCC(CNS(=O)(=O)c3ccc4c(c3)CC(C)N4C(C)=O)CC2)c1 (centres undefined) | 1.1 | 4408 | 2 | -18 | 5 | 3 | 16
4 | CCN(CC)C(=O)NC1CC2CCCC(C1)N2Cc1ccccc1 (centres undefined) | 4.2 | 3616 | 3 | -27 | 4 | 6 | 3
5 | C=CCNC(=O)c1onc(CSc2cc(C)cc(C)c2)c1C(=O)O | 7.7 | 3078 | -5 | -18 | 2 | 4 | -3
6 | CCn1nc(C(=O)NC2=NCCS2)c2ccccc2c1=O | 0.9 | 4380 | · | -17 | 0 | · | ·
7 | CCCCC(C(=O)NC1CCCC1)N(C(=O)c1snc(C(N)=O)c1N)c1ccc(F)cc1 (centres undefined) | · | 3653 | · | -28 | · | · | -1
8 | O=C(C1CCCCN1S(=O)(=O)c1ccc(F)cc1)N1CCN(c2ccccc2F)CC1 (centres undefined) | -11 | 5942 | 12 | -15 | 1 | 9 | -1
9 | Cc1cc(C)cc(NC(=O)C(=O)NCC2CCCO2)c1 (centres undefined) | 0.6 | 2277 | 1 | -33 | 5 | 13 | 7
10 | O=C(c1ccc2c(c1)OCO2)C1CCCN(Cc2ccc3nsnc3c2)C1 (centres undefined) | 9.1 | 4537 | 13 | -9 | -1 | 8 | 8
11 | COc1ccc(-c2[nH]ncc2CNC(C)CCn2cccn2)c(F)c1 (centres undefined) | 1.2 | 4435 | -2 | -28 | -1 | 11 | -1
12 | Cc1ccc2nc(NC(=O)CNS(=O)(=O)c3ccc(Br)s3)sc2c1 | -2.1 | 21835* | 5 | -23 | -21 | 10 | -4
13 | COc1cc(OC)c(OC)cc1CN1CCN(C(=O)COc2ccc3ccccc3c2)CC1 | 5.1 | 3111 | 0 | -18 | 1 | -9 | 4
14 | COc1ccc(C(=O)/C=C(/C)N(C)C)cc1 | 8.8 | 2061 | · | -5 | 0 | · | -4
15 | CCOc1ccc(/C=N/NC(=O)CN2CCSCC2)cc1 | · | 2044 | · | 0 | · | · | -4
16 | O=C(/C=C/Nc1ccc(S(=O)(=O)Nc2ncccn2)cc1)c1cccs1 | 1.2 | 4829 | 7 | 12 | 3 | 3 | -1
17 | Cc1cccc(C(=O)OCC(=O)NCC2CCCO2)c1O (centres undefined) | 2.9 | 6391 | 0 | -14 | 12 | -6 | ·
18 | O=C(Nc1cccc(-c2cn3cccnc3n2)c1)c1ccc2c(c1)OCO2 | 5.8 | 19449* | -1 | -16 | -2 | 5 | 3
19 | COc1ccc(CCNc2ccncn2)cc1 | 1.5 | 5963 | -1 | 1 | 0 | 9 | 13
20 | Cc1cccc(CC(=O)N2CCCC2)c1 | 1.9 | 4067 | 17 | -20 | 0 | 12 | 2
21 | CCOC(=O)C1=C(C)NC(=O)NC1c1ccco1 (centres undefined) | 3.4 | 23226* | 5 | -19 | 0 | 6 | ·
22 | CCCCSc1nnc2n(CCc3ccccc3)c(=O)c3c4c(sc3n12)COC(C)(C)C4 | 8.7 | 2446 | 3 | -4 | -1 | 5 | -3
23 | CC1CCC(NC(=O)CCNS(=O)(=O)c2ccc3c(c2)CCC(=O)N3)CC1 (centres undefined) | -1.7 | 6328 | -4 | -12 | 1 | -1 | 7
24 | Cc1ccccc1NC(=O)N1c2ccccc2CC1C (centres undefined) | · | 2535 | · | -18 | · | · | 3
25 | O=C1C=C(c2ccccc2)CCC1 | 13 | 2897 | -2 | -8 | 11 | 0 | 5
26 | COc1cccc(C2C3=C(N=c4sc(=Cc5ccc(O)cc5)c(=O)n42)c2ccccc2CC3)c1OC (centres undefined) | 6.8 | · | -5 | · | -5 | 3 | ·
27 | O=C1CN(C(=O)COC(=O)CCSc2ccccc2Cl)c2ccccc2N1 | -0.9 | 4569 | 1 | -4 | 28 | -2 | -3
28 | Cc1cc(C)c(CN2CCC(n3nccc3NC(=O)CCOc3ccccc3)CC2)cc1C | -0.2 | 5611 | 9 | -14 | -3 | 6 | 4
29 | CC(NC(=O)COC(=O)C1CCN(S(=O)(=O)c2ccccc2C(F)(F)F)CC1)c1ccccc1 (centres undefined) | -4.5 | 3156 | 0 | -33 | 1 | -6 | 2
30 | Cc1ccc(S(=O)(=O)N/N=C/c2ccc(C(=O)O)cc2)cc1 | · | 2717 | · | -17 | · | · | 3

Reprinted from the part before: seven compounds; new compounds follow.
# | mol | Sa RN4220 lethal | Bead autofluor | Mtb hypoxia inh | PrP UTR inh | Sa ugtP lethal | Mtb hypoxia inh growth | BJeLR lethal
24 | Cc1ccccc1NC(=O)N1c2ccccc2CC1C (centres undefined) | · | 2535 | · | -18 | · | · | 3
25 | O=C1C=C(c2ccccc2)CCC1 | 13 | 2897 | -2 | -8 | 11 | 0 | 5
26 | COc1cccc(C2C3=C(N=c4sc(=Cc5ccc(O)cc5)c(=O)n42)c2ccccc2CC3)c1OC (centres undefined) | 6.8 | · | -5 | · | -5 | 3 | ·
27 | O=C1CN(C(=O)COC(=O)CCSc2ccccc2Cl)c2ccccc2N1 | -0.9 | 4569 | 1 | -4 | 28 | -2 | -3
28 | Cc1cc(C)c(CN2CCC(n3nccc3NC(=O)CCOc3ccccc3)CC2)cc1C | -0.2 | 5611 | 9 | -14 | -3 | 6 | 4
29 | CC(NC(=O)COC(=O)C1CCN(S(=O)(=O)c2ccccc2C(F)(F)F)CC1)c1ccccc1 (centres undefined) | -4.5 | 3156 | 0 | -33 | 1 | -6 | 2
30 | Cc1ccc(S(=O)(=O)N/N=C/c2ccc(C(=O)O)cc2)cc1 | · | 2717 | · | -17 | · | · | 3
31 | COC(=O)CCC(=O)OC1(C)C(=O)C2=CN(C3CCCC3)C(c3ccc(OC)cc3)=CC2=C(Br)C1=O (centres undefined) | · | 2763 | · | -19 | · | · | -6
32 | COc1ccc(C(=O)Nc2cc([N+](=O)[O-])ccc2N2CCCC2)cc1 | 4.3 | 4261 | 19 | 1 | 1 | 6 | -8
33 | CNC(=O)c1cccc(NC(=O)C(C)c2ccc3cc(OC)ccc3c2)c1 (centres undefined) | -6.5 | 4106 | 13 | -17 | 81 | -5 | -9
34 | CCOCCCNC(=O)C(NC(=O)c1ccccc1O)c1ccc(C)cc1 (centres undefined) | 1.1 | 3479 | -7 | -21 | -2 | -13 | 0
35 | CCOCCCNC(=O)c1cn(CC)c2ccc(S(=O)(=O)N3CCCC3)cc2c1=O | -1.5 | 6160 | -1 | -6 | -3 | 9 | -8
36 | O=C(C[C@H]1C[C@H](C(=O)N2CCCCC2)[C@@]2(CCc3ccccc3)c3[nH]c4ccc(Cl)cc4c3CCN2C1=O)NCCc1ccccn1 | -0.7 | 4175 | -5 | -19 | -19 | 8 | ·
37 | COc1ccc(S(=O)Cc2ccc(C(=O)NC3CC3)o2)cc1 (centres undefined) | 0.2 | 4325 | 5 | -3 | 5 | -3 | 6
38 | COc1ccc(N2CCN(C(CNC(=O)c3ccco3)c3cccnc3)CC2)cc1 (centres undefined) | -2.9 | 4075 | 3 | -24 | -2 | 16 | -6
39 | Cc1ccc(C)c(OCc2nc3ccccc3[nH]2)c1 | 0.4 | 4645 | 5 | -51 | 8 | -1 | 10
40 | COc1ccc(-n2c(Cc3cccn3C)nnc2SCC(=O)Nc2ccc(F)cc2F)cc1 | 9.0 | 5717 | · | -17 | -2 | · | -8
41 | CN(C)S(=O)(=O)n1cc(/C=C(\NC(=O)c2ccccc2Cl)C(=O)NCCN2CCOCC2)c2ccccc21 | 2.3 | 5475 | -4 | 1 | 2 | -1 | -10
42 | NS(=O)(=O)c1cccc(NC(=O)c2cc3ccccc3o2)c1 | -0.7 | 5549 | -11 | -36 | -7 | -11 | 0
43 | Cc1nn(C(C)c2n[nH]c(=S)n2-c2cccc(Cl)c2)c(C)c1[N+](=O)[O-] (centres undefined) | 2.8 | 18732* | -5 | -26 | -5 | 10 | -4
44 | COc1ccc(CCNS(=O)(=O)c2ccc3c(c2)CCCC3)cc1OC | 13 | 3461 | -4 | -21 | 6 | -3 | ·
45 | C=CCCC(=O)Nc1nc(C)c(-c2csc(Nc3cc(Cl)ccc3OC)n2)s1 | -13 | 3833 | 1 | -13 | -34 | 8 | 3
46 | COc1ccc2cc3cc(C(=O)NCCN4CCN(c5ccccc5F)CC4)oc3nc2c1 | -5.7 | 4441 | · | -10 | 8 | · | -3
47 | CCCOc1ccc2c(c1)C(=NN=C(N)N)c1cc(OCCC)ccc1-2 | -5.5 | 3764 | 6 | · | -8 | -7 | 2
48 | O=[N+]([O-])c1ccc(CN2CCC(Cc3ccccc3)CC2)cc1 | -1.0 | 3630 | 8 | -1 | 11 | 11 | 7
49 | Cc1cc(C)c2nc(N3CCOCC3)c(C#N)cc2c1 | 10.0 | 4821 | -2 | 3 | -5 | 8 | -3
50 | CCn1nc(CC(=O)Nc2ccc(-n3cnnn3)c(C)c2)c2ccccc2c1=O | · | 4758 | · | -3 | · | · | -5
51 | Cc1nc(CN2CCN(Cc3nc(C(c4ccccc4)c4ccccc4)no3)CC2)cs1 | · | 3677 | · | -27 | · | · | -6
52 | CN(C(=O)CCNC(=O)N1CC(=O)Nc2ccccc21)C1CCCCC1 | 0.8 | 3945 | 1 | 3 | 6 | -2 | 3
53 | COc1cc(C=NNC(=O)C(=O)NCc2ccco2)ccc1O | 6.4 | · | 18 | · | 4 | 4 | ·
54 | N/C(=N\OC(=O)CCCOc1ccccc1)c1ccc(Br)cc1 | · | 3145 | · | -15 | · | · | -9
55 | C=CCN(c1ccccc1)S(=O)(=O)c1ccc2c(c1)N(C(C)=O)CCO2 | 8.7 | 5917 | 0 | -11 | 5 | -5 | -2
56 | O=S(=O)(NCCOc1ccccc1F)c1ccc(Cl)cc1F | 4.1 | 4240 | -2 | · | -14 | -3 | ·
57 | COc1ccccc1NS(=O)(=O)c1cc(NC(=O)CCC(=O)c2cccs2)ccc1Cl | -0.2 | 6864 | 2 | -10 | -1 | 2 | 2
58 | CC(=O)Nc1nc(C)c(C(C)=O)s1 | 5.6 | 3878 | 11 | -13 | 0 | 13 | 1
59 | CCC1(c2ccccc2)NC(=O)N(CC(=O)Nc2ccccc2N2CCCC2)C1=O (centres undefined) | -5.0 | ? | -5 | 1 | -8 | -4 | -4
60 | Cc1ccc(/C=N\n2c(-c3ccccc3)n[nH]c2=S)s1 | · | 3130 | · | -7 | · | · | -11

Complete entries, quoted from the list.
CCCOc1ccc2c(c1)C(=NN=C(N)N)c1cc(OCCC)ccc1-2 across the screens: Sa RN4220 lethal: -5.5; Bead autofluor: 3764; Mtb hypoxia inh: 6; PrP UTR inh: ·; Sa ugtP lethal: -8; Mtb hypoxia inh growth: -7; BJeLR lethal: 2
N/C(=N\OC(=O)CCCOc1ccccc1)c1ccc(Br)cc1 across the screens: Sa RN4220 lethal: ·; Bead autofluor: 3145; Mtb hypoxia inh: ·; PrP UTR inh: -15; Sa ugtP lethal: ·; Mtb hypoxia inh growth: ·; BJeLR lethal: -9

(continued)
# | mol | Sa RN4220 lethal | Bead autofluor | Mtb hypoxia inh | PrP UTR inh | Sa ugtP lethal | Mtb hypoxia inh growth | BJeLR lethal
61 | Cc1cccc(-c2noc(CNC(=O)c3ccoc3C)n2)c1 | -1.1 | 6527 | 10 | -19 | 1 | 16 | -6
62 | Cc1nn(-c2ccccc2)c2sc(C(=O)OC3CCOC3=O)cc12 (centres undefined) | -23 | · | 1 | -15 | -11 | 6 | 2
63 | COc1cccc(-c2cc(C(=O)N3CCN(Cc4ccc5c(c4)OCO5)CC3)on2)c1 | 0.8 | 5464 | · | -16 | 7 | · | -1
64 | CCC(C)C(C(=O)NCCCCCCCCCCC(=O)N1CCNCC1)n1cc(CCCCCN)nn1 (centres undefined) | 2.3 | · | 6 | · | -15 | 11 | ·
65 | COc1cccc(N2CCN(C(=O)CN(c3ccc(C)cc3)S(=O)(=O)c3c(C)n[nH]c3C)CC2)c1 | -5.5 | 6766 | 0 | -21 | -6 | 9 | 2
